Bst PK mod – pyruvate kinase (B. stearothermophilus) modulation. 51,000 tested, 1.2% active. Potency, µM. AID 361. partly purified Bacillus stearothermophilus pyruvate kinase, luminescence ATP production; ribose 5-phosphate activator present at AC10; in the data active means potency below about 11 µM; inconclusive means mostly about 12 µM to 25 µM; inactive means weaker than that;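 the screen sought inhibitors and activators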;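 also: potency is read from the fitted curve at half-maximal effect; scaled between full activation by ribose 5 phosphate and full inhibition by luteolin; about four in five hits inhibit and the cells do not say which; series up to 57 µM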
TsaE inh – displaces an ADP probe from E. coli YjeE (TsaE). 71,000 tested, 0.05% active. Potency, µM. P0AF67. purified YjeE, fluorescence polarisation of a bound ADP probe; active = well fitted falling curve; inconclusive = weaker or top-dose-only fall, or a rising curve; inactive = flat or poorly fitted curve;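 also: top concentration of the series not given in the record; excess ADP was the control for the full effect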
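Purified YjeE (10 uM) with BODIPY Texas Red-labeled ADP probe (2 uM); compounds pin-transferred, 15 min at room temperature. Binding inhibition read as decreased fluorescence polarization; ADP titration as control.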
* marks the source's active call; other numbers are inactive results; i = inactive; x = no result given.

Results follow in this order: Bst PK mod, TsaE inh
COc1ccc(NC(=O)[C@H](CCS(C)(=O)=O)N2Cc3ccccc3C2=O)c(OC)c1
→ x, i
CCCCC(c1nnnn1CC1CCCO1)N1CCN(c2cccc(C)c2C)CC1 (centres undefined)
→ >57, i
Cc1cc(C)c2cc(CN(Cc3ccc4c(c3)OCO4)Cc3nnnn3Cc3ccco3)c(=O)[nH]c2c1
→ >57, i
CC1Cc2cc(/C(O)=C3\C(=O)C(=O)N(CCN4CCOCC4)C3c3ccccc3F)ccc2O1 (centres undefined)
→ >57, i
COC(=O)c1c(C(=O)OC)n(CCCN)c2ccc(C)cc12
→ >57, i
CCn1c(=O)cc(SCC(=O)Nc2ccc3c(c2)OCCO3)c2ccccc21
→ >57, i
CCOC(=O)C1C(=O)C=C(c2ccc(OC)cc2)CC1c1ccco1 (centres undefined)
→ x, i
Brc1cccc(-c2nnc(SCc3nc4ccccc4[nH]3)o2)c1
→ >57, i
Cc1nn(-c2ccccc2)c2sc(C(=O)OCn3nnc4ccccc4c3=O)cc12
→ >57, i
Nc1ccc(-c2nc3ccccc3[nH]2)cc1
→ x, i
CCN(CCNC(=O)c1cc(C)nn1-c1ccccc1)c1ccccc1
→ x, i
Cc1noc(C)c1S(=O)(=O)N1CCC2(CC1)OCCO2
→ >57, i
Cc1c(N)cccc1[N+](=O)[O-]
→ x, i
Cc1nc2ccc(S(=O)(=O)NC(CC(C)C)C(=O)O)cc2s1 (centres undefined)
→ >57, i
COc1nc(OCCNC(=O)Nc2ccccc2)nc(N(C)C)n1
→ >57, i
COc1ccccc1CNC(=O)CCS(=O)(=O)c1ccc2c(c1)CCCN2C(C)=O
→ >57, i
CC(NC(=O)NC12CC3CC(CC(C3)C1)C2)C1CCCO1 (centres undefined)
→ >57, i
Cc1ccc2cccc(S(=O)(=O)N3CCN(c4ccccc4F)CC3)c2n1
→ 6.9*, i
CC(c1ccco1)N(Cc1ccco1)C(=O)Nc1ccccc1 (centres undefined)
→ >57, i
C=Cc1cccc(NC(=O)COc2ccccc2)c1
→ >57, i
COc1ccc(F)cc1S(=O)(=O)Nc1ccc2c(c1)OCO2
→ >57, i
COc1cccc(NC(=O)N2CCN(c3cccc(C)c3)C(C)C2)c1 (centres undefined)
→ >57, i
CC(=O)Nc1nc2ccccc2n1CCOc1ccccc1Cl
→ >57, i
Fc1cccc(CSc2ncnc3c2oc2ccccc23)c1
→ >57, i
Cn1c(=O)c2c(ncn2CC(O)CO)n(C)c1=O (centres undefined)
→ >26, x
O=C(CCN1C(=O)CSC1=O)Nc1ccccc1
→ >57, i
CC1=CCC2C(=O)N(c3ccc(C)c(Br)c3)C(=O)C2C1 (centres undefined)
→ x, i
O=C(c1ccc(Br)s1)N1CCN(c2ncccn2)CC1
→ >57, i
Cc1cc(-c2nnc3n2N=C(C(C)(C)C)CS3)n[nH]1
→ >57, i
COc1cc(NS(=O)(=O)c2ccccc2)ccc1-n1nc(C)cc1C
→ >57, i
Cc1ccc2cc(C(c3nnnn3Cc3ccccc3)N3CCN(c4ccccc4)CC3)c(=O)[nH]c2c1 (centres undefined)
→ >57, i
COc1cccc(Cn2c(-c3cccs3)noc2=O)c1
→ >57, i
CC1(C)SC2[C@H](NC(=O)C(NC(=O)N3CCNC3=O)c3ccccc3)C(=O)N2C1C(=O)O (some centres undefined)
→ >26, x
Cc1sc2nc(SCC(=O)N(C)C)[nH]c(=O)c2c1C
→ >57, i
Cc1ccc2cc3cc(C(=O)NCc4ccc5c(c4)OCO5)oc3nc2c1
→ >57, i
COc1ccc(-c2noc(CCN3C(=O)c4ccccc4C3=O)n2)cc1OC
→ >57, i
Cc1ccc(S(=O)(=O)N2CCC(C(=O)N[C@@H](C)C(=O)NCC3CCCO3)CC2)cc1 (some centres undefined)
→ >57, i
CC(=O)Nc1cccc(-c2nnc(SCC(=O)N3CCCCC3)n2C)c1
→ >57, i
COc1ccc(C(=O)Nc2ccc(Cl)cc2C(=O)NCCO)cc1
→ x, i
CCC(=O)Nc1cccc(NC(=O)c2ccc3c(c2)OCCO3)c1
→ x, i
O=C(NCc1cccs1)c1cc2c(s1)CS(=O)(=O)C2
→ >57, i
CCc1ccccc1N1CC23C=CC(O2)C(C(=O)OC)C3C1=O (centres undefined)
→ x, i
NC(=NCCC[C@H](N)C(=O)O)NO
→ x, i
C[C@@H]1NCC[C@H](CC(=O)O)[C@H]1CC(=O)O
→ x, i
O=S(=O)(c1ccccc1)n1nc(-c2ccccc2)nc1NCc1ccco1
→ >57, i
COc1ccc2nc(NC(=O)CSC3=NCCS3)sc2c1
→ x, i
Cc1ccc(NC(=O)CSc2nnc(-c3ccc(S(=O)(=O)N4CCOCC4)cc3)n2C)cc1
→ >57, i
O=c1[nH]c(CN2CCN(C/C=C/c3ccccc3)CC2)nc2cc(Cl)ccc12
→ >57, i
O=C(OCCNC(=O)c1cc2ccccc2oc1=O)c1cccnc1
→ >57, i
O=C(NC1CC2CCC(C1)N2Cc1nnnn1Cc1ccco1)NC12CC3CC(CC(C3)C1)C2 (centres undefined)
→ >57, i
COC(=O)c1ccc(CSc2ccc3nnc(-c4ccccn4)n3n2)o1
→ x, i
O=C(CCN1CCCCC1)c1ccc2c(c1)OCCO2
→ >57, i
Cn1c(=O)c2c(SCC(=O)NCC3CCCO3)nc(-c3cccs3)nc2n(C)c1=O (centres undefined)
→ x, i
COCCNC(=O)CS(=O)Cc1nc(-c2ccccc2C)oc1C (centres undefined)
→ x, i
CCC(=O)N=C1SC2CS(=O)(=O)CC2N1c1cccc(OC)c1 (centres undefined)
→ >57, i
CCOc1ccc(N(CC(N)=O)S(=O)(=O)c2ccc(F)cc2)cc1
→ >57, i
COc1ccc2cc(CN(Cc3cccnc3)Cc3nnnn3Cc3ccccc3)c(=O)[nH]c2c1
→ >57, i
Cc1cccc(NC(=O)N2CCC(c3nc4ccccc4o3)CC2)c1
→ >57, i
CC(=O)Nc1cccc(Oc2ccc3c(c2)C(=O)N(CCC(=O)O)C3=O)c1
→ >57, i
Cc1ccc(N(C(C)C(=O)Nc2ccccc2C(=O)N2CCOCC2)S(C)(=O)=O)cc1C (centres undefined)
→ >57, i

Going on with the list:
Results follow in this order: Bst PK mod, TsaE inh
O=S(=O)(NCCSc1nc2ccccc2o1)c1ccccc1
→ x, i
CC1(c2ccc(Cl)cc2)NC(=O)N(CC(=O)NC(=O)NCc2ccco2)C1=O (centres undefined)
→ >57, i
CCOC(=O)N1CCC(NC(=O)CSc2cc(=O)n(C)c3ccccc23)CC1
→ >57, i
O=C(Nc1ccc2c(c1)Cc1ccccc1-2)[C@@H]1[C@H](C(=O)O)[C@]2(Cl)C(Cl)=C(Cl)[C@@]1(Cl)C2(Cl)Cl
→ x, i
CCCNC(=O)N1N=C(c2ccc(N)cc2)c2cc3c(cc2[C@H]1C)OCO3
→ x, i
CC(C)(C)C(=O)Oc1cc(N)n(S(=O)(=O)c2ccccc2)n1
→ >57, i
COc1ccc(CCNC(=O)c2nnn(CC(=O)Nc3ccccc3C)c2N)cc1OC
→ >57, i
Cc1cc(C(=O)N[C@H](c2ccccc2)[C@@]2(C)C[C@@H]2[C@@H](C)C(=O)Nc2ccc3ccccc3c2)n(C)n1
→ x, i
c1ccc(CNc2c3c(nc4ncnn24)CCCC3)nc1
→ >57, i
COc1ccc(N(CC(=O)Nc2cc(C)on2)S(=O)(=O)c2cc(C)ccc2C)cc1
→ >57, i
O=C1NC(=O)C(CC(=O)N(c2ccccc2)C2(C(=O)NC3CCCC3)CCCCC2)N1 (centres undefined)
→ >57, i
CC1(C)CC(=O)C2=C(C1)OC(N)=C(C#N)C2C#Cc1ccccc1 (centres undefined)
→ >57, i
CCCCn1c(=NC(=O)c2ccc3c(c2)OCO3)c(C#N)cc2c(=O)n3cccc(C)c3nc21
→ >57, i
O[C@@H](c1cc(-c2ccccc2)nc2c1ccc1ccccc12)[C@@H]1CCCCN1
→ x, i
Cc1ccc2cc(CN(C(=O)c3ccncc3)C(C)C)c(=O)[nH]c2c1
→ >57, i
O=c1c2c(nc3cc(-c4ccc(F)cc4)[nH]n13)CCCC2
→ 5.3*, i
COc1ccc(OC(C)C(=O)N2CCOCC2)cc1 (centres undefined)
→ >57, i
O=C1c2ccccc2C(Nc2ccc(-c3nc4ccccc4[nH]3)cc2)N1Cc1ccco1 (centres undefined)
→ x, i
CCCC(=O)Nc1ccccc1-c1nnn(CC(=O)Nc2ccc(OCC)cc2)n1
→ >57, i
Clc1ccccc1-c1ccc2ncnc(NCCN3CCOCC3)c2c1
→ x, i

Following part.
molecule	Bst PK mod	TsaE inh
COc1cc2c(cc1OC)C(Cc1ccc(O)cc1)N(C)CC2 (centres undefined)	x	i
COc1ccc(-c2ccc(SCC(=O)Nc3cc(C)on3)nn2)cc1OC	i	i
COCC1C2CC[C@H]3C(OCc4ccc(OC)cc4)OC[C@]4(C)[C@H]3C2=C(CN4C(=O)OC(C)(C)C)[C@H](C)C1COC (some centres undefined)	x	i
Cc1csc(NC(=O)CSc2nc3ccccc3c(=O)[nH]2)n1	>57	i
COc1cc(N)c(Cl)cc1NC(=O)c1ccccc1	x	i
COc1cc2c(cc1OC)C(C)N(C(=O)Cn1ncc3c1-c1ccccc1OC3)CC2 (centres undefined)	x	i
Cc1cc(C)nc(NC(=O)COc2ccc(Cl)cc2)c1	x	i
O=C(CN1C(=O)CSC1=O)Nc1ccc2c(c1)OCCO2	>57	i
COc1ccc(NC(=O)N2CC(C)OC(C)C2)cc1OC (centres undefined)	>57	i
O=C(COc1ccc(Cl)cc1)Nc1ccc2oc(-c3ccncc3)nc2c1	>57	i
O=S(=O)(NC1=NCCCCCC1)c1cccs1	>57	i
COC(=O)Cc1ccc(NC(=O)c2ccc(Br)o2)cc1	x	i
COc1cc(OC)cc(C(=O)NCCN2CCOCC2)c1	>57	i
COc1ccc(NC(=O)CCN2CCC(C)CC2)cc1	x	i
N#Cc1nc(-c2cccs2)oc1N1CCN(c2ccccc2)CC1	x	i
Clc1ccc2nc(NC3=NCN(CCN4CCOCC4)CN3)nc(-c3ccccc3)c2c1	>57	i
Cc1cccn2c(=O)c(/C=N/O)c(N3CCCCC3)nc12	>57	i
Cc1ccc(S(=O)(=O)Cn2nnnc2C(C(C)C)N2CCN(C(=O)c3ccco3)CC2)cc1 (centres undefined)	>57	i
COCCN(Cc1cc2cccc(C)c2[nH]c1=O)C(=O)c1ccccc1	>57	i
COC(=O)CCc1c(C)[nH]c(=S)[nH]c1=O	>11	x

The closing 6 records of the part before open the next one.
molecule	Bst PK mod	TsaE inh
N#Cc1nc(-c2cccs2)oc1N1CCN(c2ccccc2)CC1	x	i
Clc1ccc2nc(NC3=NCN(CCN4CCOCC4)CN3)nc(-c3ccccc3)c2c1	>57	i
Cc1cccn2c(=O)c(/C=N/O)c(N3CCCCC3)nc12	>57	i
Cc1ccc(S(=O)(=O)Cn2nnnc2C(C(C)C)N2CCN(C(=O)c3ccco3)CC2)cc1 (centres undefined)	>57	i
COCCN(Cc1cc2cccc(C)c2[nH]c1=O)C(=O)c1ccccc1	>57	i
COC(=O)CCc1c(C)[nH]c(=S)[nH]c1=O	>11	x
Cc1cc(C)c(NC(=O)CSc2nnc(-c3ccncc3)n2Cc2ccco2)c(Cl)c1	>57	i
CSCCC(/C(O)=C(\C#N)c1nc2ccccc2[nH]1)N1C(=O)c2ccccc2C1=O (centres undefined)	x	i
O=c1ccnc(NCCc2ccccc2)[nH]1	>57	i
O=C(Nc1ccccc1)c1ccc(F)c(S(=O)(=O)N2CCOCC2)c1	>57	i
COc1cc(-c2nnc(-c3ccco3)o2)ccc1OCc1ccccc1	x	i
Cc1ccc(Cn2c(=N)c(C(=O)NCc3ccco3)cc3c(=O)n4ccccc4nc32)cc1	x	i
Clc1ccccc1-c1nn2c(-c3ccncc3)nnc2s1	>57	i
CC(C)[C@@H](CC(=O)N[C@@H]1CCCC[C@H]1C(=O)N[C@H](CC(=O)N[C@@H](CCC(=O)O)CC(=O)O)Cc1ccccc1)NC(=O)C[C@H](CO)NC(=O)[C@@H]1CCCC[C@H]1N	x	i
CCCCn1c(SCC(=O)NCc2ccccc2)nc2ccc(N3CCOCC3)cc2c1=O	>57	i
Cc1ccccc1CS(=O)(=O)CCC(=O)NCc1ccccn1	>57	i
Cc1ccc(NC(=O)COC(=O)c2ccn(C)n2)cc1	>57	i
COC(=O)CSc1nnc(CNC(=O)c2cc(OC)c(OC)c(OC)c2)n1C	>57	i
CCC1(COC(=O)Nc2cccc(Cl)c2)COC1	>57	i
O=C(OCCn1cncn1)c1cc2ccccc2oc1=O	>57	i
COC(=O)COc1ccc(S(=O)(=O)Nc2ccc3c(c2)OCO3)cc1Cl	>57	i
COC(=O)c1cc(OC)c(OC)cc1NC(=O)CN1CCOCC1	>57	i
CSCCC(NS(=O)(=O)c1ccc2c(c1)oc(=O)n2C)C(=O)NC1CCC(C)CC1 (centres undefined)	x	i
CCOC(=O)c1sc(NC(=O)CSc2nc3c(cc2C#N)CCC3)c(C#N)c1C	>57	i
COc1ccc(N=C2SC(CC(=O)Nc3ccc(OC)cc3OC)C(=O)N2C)cc1 (centres undefined)	>57	i
Cc1cccc(NC(=O)CCc2ccc(C)o2)c1	>57	i
Cn1nc(-c2ccc(N3CCCCC3)c(NC(=O)c3ccco3)c2)c2ccccc2c1=O	>57	i

No new results follow: 2 of the compounds above.
molecule	Bst PK mod	TsaE inh
Cc1cc(C)c(NC(=O)CSc2nnc(-c3ccncc3)n2Cc2ccco2)c(Cl)c1	>57	i
CSCCC(/C(O)=C(\C#N)c1nc2ccccc2[nH]1)N1C(=O)c2ccccc2C1=O (centres undefined)	x	i

Not all compounds are listed; count on the stated rates, not on these rows.
